NPYLR7 ag – agonists of mosquito NPYLR7 receptor, primary screen, cell-based, Aedes aegypti, calcium fluorescence, mosquito biting behavior. Aedes aegypti neuropeptide Y-like receptor 7 (NPYLR7). HEK293T NPYLR7/Galpha15, GCaMP6s calcium fluorescence. activation, % at 10 µM. 270,000 compounds, 0.15% hits. AID 1259423, 2018; in the data active = activation above about 40%;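 note: 0% = vehicle and 100% = reference agonist at the receptor; some compounds past the cut are filed as inactive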
NPYLR7 ag max-min – further read-out of NPYLR7 ag, marked with its call; activation, %; measured here: Max-Min RFU normalised activation; some inactives read as strong as hits;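 span of the calcium signal over five minutes; 0% = vehicle and 100% = native peptide agonist; compound fluorescence can raise it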
* marks the source's active call; other numbers are inactive results; & = joins results of further samples.

SMILES	NPYLR7 ag	NPYLR7 ag max-min
O=C(NC1CC1c1ccccc1)N1CCCC1c1ccc2c(c1)OCCO2 (stereo not drawn)	12	9
Cc1nnsc1CN(C)C(=O)c1cccc2c1OCC2	-4	-6
COC(C)(C)CC(C)NC1CCN(C(=O)c2ccco2)CC1 (stereo not drawn)	15	13
Cc1ccc2nsnc2c1N(S(C)(=O)=O)S(C)(=O)=O	3	1
Cn1cc(CCC(=O)N2CCCC(Nc3ccc(F)cc3)C2)cn1 (stereo not drawn)	4	0
CN(C)S(=O)(=O)c1ccc(OCCNc2ccc(F)cc2)cc1	1	-2
CCOC(=O)c1nc2cc(Cl)c(Cl)cc2nc1N1CCCN(S(=O)(=O)c2cccc(F)c2)CC1	6	2
Clc1ccccc1Cn1ccnc1CNC1CCCCC1	-5	1
Cc1ccc(S(=O)(=O)Nc2c(C)cccc2C(C)C)cc1	1	-2
O=S(=O)(NCCCNc1cccnc1)NCc1ccccc1	6	0
O=C(c1cc2cc([N+](=O)[O-])ccc2oc1=O)N1CCN(c2ccccc2)CC1	0	1
O=C(NCC1CCCN(S(=O)(=O)c2ccc(-c3ccccc3)cc2)C1)c1ccco1 (stereo not drawn)	4	4
COc1ccc(NC(=O)c2c([N+](=O)[O-])cnn2C)cc1	-6	-10
COc1cccc(C(C)OC(=O)C2CC3CCC2O3)c1 (stereo not drawn)	0	-4
Cc1nnc(C)n1NC1OC(=O)c2ccccc21 (stereo not drawn)	0	-1
CCCCCC(=O)Nc1nnc(SCCCC(=O)OCC)s1	-3	2
COc1cccc(OC(C)CNC(=O)N(C)C2CC2)c1 (stereo not drawn)	5	3
CN(C(=O)C12CC3CC(CC(C3)C1)C2)C1CCS(=O)(=O)C1 (stereo not drawn)	-1	-3
O=C(CN1CCCC1c1nnc2n1CCCCC2)NCC1CC1 (stereo not drawn)	-3	549
Cc1cc(C)n(-c2ccc(NC(=O)C3CCN(C(=O)c4cncs4)CC3)cc2)n1	0	-5
Cc1cccc(C(=O)c2cn[nH]c2-c2cc(C)ccc2O)c1	-11	-20
CC(NC(=O)N1CCN(S(=O)(=O)c2cccc(Cl)c2)CC1)c1ccc2c(c1)OCCO2 (stereo not drawn)	14	17
Cc1ccc(N2CCn3c2nc2c3c(=O)n(CC(C)C)c(=O)n2C)c(C)c1	3	1
Cc1ccc(C(C)NC(=O)Cn2c(=O)c(Br)c(N)n(C)c2=O)cc1C (stereo not drawn)	-4	-3
CCCCNC(=S)N(C)N=C1C(=O)Nc2ccc([N+](=O)[O-])cc21	8	5
C(=C\c1ccccc1)/CSc1n[nH]c(-c2cccnc2)n1	9	4
Cc1ccc(NC(=O)c2cn(C)c3c(=O)n(Cc4ccccc4)c(=O)[nH]c23)cc1	2	0
CC(C)CN1C(=O)NC(NC(=O)C2CCCCC2)(C(F)(F)F)C1=O (stereo not drawn)	17	8
O=C(CSc1nnc(NC(=O)C2CCC2)s1)c1ccc(F)cc1	-2	11
Cc1ccc(CSC2=NN3CCS(=O)(=O)N=C3S2)cc1	5	3

Reprinted from the part before: two compounds; new compounds follow.
SMILES	NPYLR7 ag	NPYLR7 ag max-min
O=C(CSc1nnc(NC(=O)C2CCC2)s1)c1ccc(F)cc1	-2	11
Cc1ccc(CSC2=NN3CCS(=O)(=O)N=C3S2)cc1	5	3
Cc1nc(SCc2ccccc2F)[nH]c(=O)c1CC(=O)NC1CC1	-7	-13
O=C(O)c1sccc1S(=O)(=O)N1CCOCC1	7	14
COc1cccc(OC)c1C(=O)N1CCN(C(C(=O)NCc2ccccn2)C2CCCC2)CC1 (stereo not drawn)	-6	2
Cn1ccnc1P(=O)(c1ccccc1)c1ccccc1	6	4
Cc1ccc2c(c1)SC(C(=O)NCC1CC1)C2 (stereo not drawn)	1	-2
Cc1ccccc1CCN1CCCC(CN(C)C(=O)/C=C/c2nc3ccccc3s2)C1 (stereo not drawn)	-7	-12
COc1ccccc1C1N(Cc2ccc(Cl)cc2)C(=O)C1(F)F (stereo not drawn)	2	0
c1csc(-c2csc(CNCCN3CCOCC3)c2)c1	-3	-1
Cc1ccnc(NC(=O)Nc2c[nH]c3ccccc23)c1	2	-3
CCOc1ccc(N2C(=O)C(=Cc3ccc(OC)cc3)SC2=S)cc1	20	10
COCc1cc(N2CCN(c3ccc(OC)cc3)CC2)nc(SCc2ccc(C(=O)NCC3CCCO3)o2)n1 (stereo not drawn)	4	2
COc1ccc(Cl)cc1NC(=O)CCCSc1ccc(NC(=O)C2CC2)nn1	1	-1
CC1(C(=O)Nc2ccc3c(c2)OCO3)CCN1Cc1csc2ccccc12 (stereo not drawn)	-2	-4
O=C(N[C@@H]1CCCCC1NC(=O)C1CCCN(C(=O)C2CCC2)C1)c1ccccc1 (stereo partly drawn)	0	2
Cc1cccc(C(=O)N2CCN(C(=O)C(=O)N3CCOCC3)CC2)c1	3	2
CCOC(=O)c1cc(-c2ccc(N3CCN(C(=O)C(OC(C)=O)c4ccccc4)CC3)cc2)n(-c2ccccn2)n1 (stereo not drawn)	15	8
CCN(CC)C(=O)c1sc(NC(=O)/C=C/c2ccc3c(c2)OCO3)c(C#N)c1C	-5	-10
CC1c2cccn2CCN1C(=O)CCCc1nc(-c2ccco2)no1 (stereo not drawn)	-1	-5
NCC1OC(O[C@@H]2[C@H](O)C(OC3C(O)C(N)CC(N)C3OC3OC(CO)C(O)C(O)C3N)O[C@@H]2CO)C(N)C(O)C1O (stereo partly drawn)	0	10
CCOCCCn1c(C)c(C)n2c3c(=O)n(Cc4cc(C)ccc4C)c(=O)n(C)c3nc12	0	-1
CCn1c(CC2CCN(Cc3cc(C(C)C)no3)CC2)n[nH]c1=O	5	1
CC1CCN(C(=O)CSc2nc3ccccc3[nH]2)CC1	-8	-13
CNC(=O)C(Sc1n[nH]c(-c2cccnc2)n1)C(C)=O (stereo not drawn)	-3	-5
COc1cc(/C=C/C(=O)N(C)Cc2n[nH]c(C)n2)ccc1OC(C)C	5	-9
CC(c1ccc(-c2cncc(C(N)=O)c2)cc1)N1CCOCC1 (stereo not drawn)	-5	-8
CN(C)C(=O)c1ccc(S(=O)(=O)N2CCOCC2)cc1	1	2
COc1ccc(C(=O)NC(C(=O)NC(C)C(C)C)C2CCN(C(=O)c3ccc(F)cc3)CC2)cc1 (stereo not drawn)	18	20
COc1ccc(NC(=O)Nc2ccc(Nc3cc(-n4cccn4)ncn3)cc2)c(OC)c1	-3	-7
O=C1Nc2ccc(-c3ccccc3F)cc2C(=O)N2C[C@H](O)C[C@@H]12	-8	-18
COc1ccc(S(=O)(=O)N(CC(=O)N(Cc2ccc3c(c2)OCO3)Cc2ccco2)C(C)C)cc1	-5	7

Some values from above:
In NPYLR7 ag max-min, Cc1ccc2c(c1)SC(C(=O)NCC1CC1)C2 (stereo not drawn) is listed with -2
In NPYLR7 ag, COc1cc(/C=C/C(=O)N(C)Cc2n[nH]c(C)n2)ccc1OC(C)C is listed with 5

The list goes on:
SMILES	NPYLR7 ag	NPYLR7 ag max-min
N#CC1C(=N)Oc2c(sc3ccccc23)C1c1cccs1 (stereo not drawn)	-8&7	-11&3
C=CCn1cc(CN2CCn3nc(-c4nc5ccccc5n4C)cc3C2)c(C)n1	9	0
COC(=O)c1cc2n(n1)CCN(C(=O)CC(=O)Nc1ccc(C)cc1)C2	15	-2
O=C(Cn1nc(-c2ccccc2)c2sc(N3CCCCC3)nc2c1=O)Nc1cccc(F)c1	-3	-6
COc1ccc2c(Cn3cc(C(F)(F)F)ccc3=O)cc(=O)oc2c1	-3	1
Cc1c(C)n2c3c(=O)n(CC(N)=O)c(=O)n(C)c3nc2n1CCCO	8	10
CCNc1ncc(C2CC(=O)Nc3c2c(C)nn3-c2ccc(OC)cc2)cn1 (stereo not drawn)	-4	-12
Cc1ccc2c(CC(=O)N(C3CCS(=O)(=O)C3)N(C)C)coc2c1C (stereo not drawn)	10	8
CNC(=O)Nc1ccc(NC(=O)c2ccc(N3CC=CC3)cc2)cc1	0	-2
Cn1c(=O)c2c(ncn2CCNc2ccc(F)cc2OCCO)n(C)c1=O	6	3
Cc1cc(C)c2c(n1)sc1c(=O)n(CC(=O)NC(C)C3CC3)cnc12 (stereo not drawn)	2	0
Cc1cc(OC(=O)c2ccc(Br)cc2)c([N+](=O)[O-])c(=O)[nH]1	18	13
COc1ccc(NC(=O)C(C2CCCC2)N2CCN(C(=O)c3ccc(Cl)cc3)CC2)cc1 (stereo not drawn)	14	19
CCOC(=O)N1CCN(C(=O)c2cccc(CSc3nc(Cl)cc(N(C)CCc4ccc(OC)c(OC)c4)n3)c2)CC1	12	10
COC(=O)[C@@H]1C[C@@H](N(C)C)CN1C(=O)c1cnc(C(C)C)nc1C	-3	-3
FC(F)C(F)(F)CN1CCN(CCc2ccccc2)CC1	2	0
Cc1ccc(-c2nc(NC3CCOCC3)ncc2-c2ccc(O)cc2)cc1	3	0
O=C(Nc1ccccc1C(=O)N=Nc1c(O)[nH]c2ccc([N+](=O)[O-])cc12)c1ccccc1	13	11
CCN(CC)CCNC(=O)c1c(O)nc2scc(C)n2c1=O	-1	24
CC(C)n1cc(Nc2ccccc2S(=O)(=O)C(F)(F)F)cn1	7	4
CCc1c(C)[nH][n+]2cnn(Cc3ccc(Cl)cc3)c2c1=O	1	0
CC[C@H](CC[C@@H](C)[C@H]1CC[C@H]2[C@@H]3CC=C4C[C@@H](O)CC[C@]4(C)[C@H]3CC[C@]12C)C(C)C	13	-5
COc1ccc(OC)c(C(=O)c2coc3ccc(OC)cc23)c1	4	0
CC(=O)c1c(C)[nH]c(C(=O)C(C)Nc2ccccc2SCC(N)=O)c1C (stereo not drawn)	3	0
COc1ccccc1-c1ccc(N2CCCC(CN3CCCC3=O)C2)nn1 (stereo not drawn)	-10	-13
COc1ccc(NC(=S)N2CCN(C(=O)c3ccccc3)CC2)cc1	7	5
CCn1c(C(=O)Nc2ccc3oc(=O)[nH]c3c2)cc2ccccc21	5	4
CCn1c(=O)c2c(nc(-n3nc(C)cc3C)n2Cc2ccccc2C)n(C)c1=O	2	-3
Cc1cccc(Cn2nc(-c3cccs3)c3sc(N4CCOCC4)nc3c2=O)c1	0	-3
COC(=O)NC1CCN(c2ccccc2C(=O)N(C)Cc2ccco2)CC1	-2	9

Molecules above that have a cyano group (2):
SMILES	NPYLR7 ag	NPYLR7 ag max-min
CCN(CC)C(=O)c1sc(NC(=O)/C=C/c2ccc3c(c2)OCO3)c(C#N)c1C	-5	-10
N#CC1C(=N)Oc2c(sc3ccccc23)C1c1cccs1 (stereo not drawn)	-8&7	-11&3

Further entries
SMILES	NPYLR7 ag	NPYLR7 ag max-min
Cc1ccc(S(=O)(=O)N2C[C@H]3C[C@H](O)[C@H](O)C[C@H]3C2)c(F)c1	7	6
COc1ccc(CCNC(=O)c2cccnc2N2CCN(C(=O)NCc3ccco3)CC2)cc1OC	8	-1
Cc1ccc2oc(CN(C(=O)C(C)Oc3ccccc3)C3CCCCC3)nc2c1 (stereo not drawn)	4	1
Cc1cc(Nc2ccc(Oc3ccccc3)cc2)nc(-n2cc([N+](=O)[O-])cn2)n1	5	4
C/C(=N\NC(=O)c1cc(-c2ccc(Cl)s2)[nH]n1)c1ccccc1O	4	1
C1=C(CN2CCc3sccc3C2)N2CCCN=C2S1	6	4
CC1=CC[C@@H]2CN(C(=O)c3ccc(N(C)S(C)(=O)=O)cc3)C[C@@H]2C1	6	4
Cc1nc2cccc(C)n2c(=O)c1NC(=O)c1ccc(-c2ccccc2)cc1	2	0
COc1ccc2c(c1)C(C)(Cc1ccc(OC(F)(F)F)cc1)C(=O)N2 (stereo not drawn)	2	1
Clc1cccc(-c2noc(CN3CCCC(c4ccccc4)C3)n2)c1 (stereo not drawn)	1	-3
COc1cc(OC)c(OC)cc1/C=C1/SC(=S)N(CC(=O)O)C1=O	59*	48*
COc1nc2ccccc2cc1-c1nc(CO)cs1	6	4
Cc1n[nH]c(=O)c2c(NC(=O)CSc3nnnn3C3CC3)oc(C)c12	0	1
O=C1NCC(=O)N2CCN(S(=O)(=O)N3CCCCCC3)CC12 (stereo not drawn)	5	4
CCOC(=O)c1nc2ccccc2nc1N1CCCN(C(=O)COC)CC1	9	3
CCCCC(=O)Nc1cc(-c2cn3nc(OC)ccc3n2)ccc1F	-7	-12
C=CCONC(=O)CN1C(=O)C(Cc2ccccc2)N(CC#CC)C(=O)c2ccccc21 (stereo not drawn)	0	4
CCN(Cc1ccc2c(c1)OCCO2)C(=O)C1CCN(S(=O)(=O)c2c(C)cc(C)cc2C)CC1	0	7
COc1ccc(C(=O)N(C)CC(O)c2ccccc2)cc1OC1CCN(C(C)=O)CC1 (stereo not drawn)	1	2
O=C1c2ccccc2-c2nnc3c(c21)CCCCCC3	10	5
CN(CCCC(=O)O)C(=O)Cc1ccccc1Cl	-2	-1
Cc1c(O)c(CN2CCN(C)CC2)cc2c1oc(=O)c1ccccc12	-21	-28
COc1ccc2nc(N(CCN(C)C)C(=O)c3cc(C)nn3C)sc2c1	1	0
Cc1cccc(NC(=O)CC(=O)NC2(c3cc(F)ccc3F)CC2)c1C	0	-6
O=C(c1ccc(CO)o1)N1CCCCC1CCc1cccc(O)c1 (stereo not drawn)	1	2
O=C1O[C@@H]2[C@H]3[C@@H]([C@H]1C[C@H]2O)N(CC1CCCCC1)C(=S)N3CC1CCCCC1	-8	-15

Screening results deposited in PubChem by Fisher Drug Discovery Resource Center.

Only part of the results is shown. The share of hits here may be higher or lower than overall.
